Bioassay records (PubChem BioAssay)
Rango-impB inh = Rango-importin beta binding inhibition | Q14974 | Rango CFP/YFP FRET sensor + importin beta, 45 min | Potency, µM (top dose mostly 92.2 µM), for inactives: at the highest dose inhibition of complex formation | 340,000 tested, 0.031% active; active = rising FRET ratio curve, often small or poorly fitted; inconclusive = mostly compound fluorescence or quenching in the first reads; inactive = flat curves in all reads;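 also: potency is read from the fitted curve at half-maximal effect; 0% = DMSO wells and 100% = buffer wells lacking importin beta; nearly all actives have a fitted effect of over 15% in size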
Target sequence (Q14974 whole entry, looked up): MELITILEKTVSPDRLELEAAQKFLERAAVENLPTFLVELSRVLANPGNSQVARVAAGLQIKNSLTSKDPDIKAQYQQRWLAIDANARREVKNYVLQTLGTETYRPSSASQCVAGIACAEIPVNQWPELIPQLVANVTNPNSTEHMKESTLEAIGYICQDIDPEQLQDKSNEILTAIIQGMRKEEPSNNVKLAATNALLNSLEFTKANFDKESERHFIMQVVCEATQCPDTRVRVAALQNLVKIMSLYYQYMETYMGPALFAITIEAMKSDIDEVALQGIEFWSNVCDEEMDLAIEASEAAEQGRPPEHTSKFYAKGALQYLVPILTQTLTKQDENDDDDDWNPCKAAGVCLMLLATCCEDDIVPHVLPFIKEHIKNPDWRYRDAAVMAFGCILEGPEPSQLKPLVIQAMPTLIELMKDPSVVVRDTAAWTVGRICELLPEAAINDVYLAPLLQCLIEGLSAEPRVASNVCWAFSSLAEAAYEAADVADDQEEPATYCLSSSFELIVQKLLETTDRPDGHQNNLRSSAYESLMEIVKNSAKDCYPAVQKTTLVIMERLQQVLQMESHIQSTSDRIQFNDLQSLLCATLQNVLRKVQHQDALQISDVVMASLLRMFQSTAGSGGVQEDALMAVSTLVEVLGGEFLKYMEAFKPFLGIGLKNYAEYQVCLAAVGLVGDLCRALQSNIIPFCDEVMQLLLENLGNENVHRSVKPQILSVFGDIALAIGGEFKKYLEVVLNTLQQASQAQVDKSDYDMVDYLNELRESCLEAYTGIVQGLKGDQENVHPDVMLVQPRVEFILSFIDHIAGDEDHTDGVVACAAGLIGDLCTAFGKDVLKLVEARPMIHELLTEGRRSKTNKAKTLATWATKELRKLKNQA
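FRET biosensor (snurportin 1 IBB flanked by EYFP and cerulean), 50 nM, with compound 5 min, then 0.125 microM importin beta in PBS, 1 mM DTT, 0.02% Tween-20, 0.1% BSA. CFP/YFP ratio read after 45 min at room temperature; pre-read flags interference.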
miR-21 FLuc = miR-21 reporter, rising signal | Potency, µM (highest dose often 38.3 µM), inactives show at the top dose reporter change, positive = more light | AID 2288 | 340,000 tested, under 10 active | HeLa miR-21 FLuc reporter, luciferase, 48 h; active = well fitted rising curve with a large enough effect; inconclusive = small, poorly fitted or top-dose-only effect; inactive = no such curve, though single readings can be large or run the other way;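 also: % of control where 0% means no effect; miR-21 action dims this reporter so a rising signal means less miR-21 action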
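HeLa miR-21-FLuc reporter line, endogenous miR-21; 2000 cells/well in DMEM/10% FBS; compound titration up to ~40uM final, 48 h, 37 degree Celsius; luciferase detection reagent, 15 min lysis, CCD luminescence.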
GLA inh pH 4.5 = blocks human alpha-galactosidase A at pH 4.5. P06280. purified enzyme, 4-MU-alpha-Gal fluorescence, pH 4.5. activity change, negative = inhibition, % at 105 µM. 230,000 tested, under 10 active; inconclusive = small, poorly fitted or top-dose-only inhibition, or a rising curve; inactive = flat fitted curve, though single readings scatter; no compound was filed as active;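 also: 0% = full activity with enzyme and -100% = basal without enzyme; dose as in the result columns while the protocol names 77 µM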
Rango dissoc inh = prevents RanGTP from dissociating the Rango-importin beta complex; Biochemical FRET Rango-importin beta, RanGTP-induced dissociation; Potency, µM (series often up to 46.1 µM), for the others: at the top dose activity change, negative = inhibition; 340,000 tested, 0.071% active; AID 540253; active means falling FRET ratio curve, often poorly fitted, with flat reads before Ran was added; inconclusive means other falling curves, or compound fluorescence or quenching; inactive means flat or rising ratio curve;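 also: potency is read from the fitted curve at half-maximal effect; % of control where 0% means no effect; nearly all actives have a fitted effect of over 45% in size; -100% = wells without RanGTP and RCC1; the record marks most hits as doubtful in a second field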
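Rango/importin beta premix (0.1/0.25 uM final), PBS + 1 mM DTT + 0.02% Tween-20 + 0.1% BSA; cpd 5 min RT; FRET pre-read; + RanGTP-RCC1 (0.6 uM Ran, 2 mM GTP, 0.2 uM RCC1); 45 min RT; FRET post-read, ex 430, em 486/530 nm.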
An asterisk follows results filed as active; ? = inconclusive; nt = not tested or not shown; & = joins results of further samples. A portion of the library; count on the stated rates, not on these rows.

Second line of a record: Rango-impB inh, miR-21 FLuc, GLA inh pH 4.5, Rango dissoc inh
COCc1ccc(CN2CCCC(CCC(=O)NCc3cccc(OC)c3)C2)o1 (stereo not given)
→ -0.8%, -1%, -9, -10%
CC(C)Oc1ccc(C2CNC(=O)C2)cc1 (stereo not given)
→ -3.3%, -2%, -6, 6%
COc1cccc(C2=NOC(C(=O)Nc3ccccc3SC)C2)c1 (stereo not given)
→ 2.9%, -7%, -12, -10%
COc1ccc(CCNC(=O)CSc2ccc(-c3ccccc3)nn2)cc1
→ nt, -3%, 3, nt
O=C(CC1CCCC1)N1CCCC(Nc2cccc(F)c2)C1 (stereo not given)
→ -1.0%, 1%, nt, -1%
CCN(CC)S(=O)(=O)c1cc(C)c(C)cc1OCC(=O)NC1CCCC1
→ -2.6%, 7%, nt, -8%
CC(=O)NNC(=S)NC(=O)c1ccc(C)cc1
→ -0.8%, -14%, 1, 21%
COC(=O)c1ccc(CNC(=O)CNc2cc(C(F)(F)F)ccc2N2CCOCC2)cc1
→ -5.3%, 0%, 0, -8%
O=C(c1ccc([N+](=O)[O-])cc1)N(Cc1ccccc1)c1ccccn1
→ -0.5%, 3%, -18, 14%
S=C(Nc1ccc(Cl)cc1Cl)N1CCOCC1
→ -2.5%, -11%, 5, -4%
FC(F)(F)c1cnc(N2CCCN(C(=S)Nc3ccccc3)CC2)c(Cl)c1
→ -0.3%, 20%, -11, 9%
Cn1c2c(c(=O)c3ccccc31)CCC(C)(C)O2
→ -0.1%, -19%, -1, 8%
CC(=O)Nc1ccc(N/C(N)=N/c2nc(C)cc(C)n2)cc1
→ 8.3%, 4%, -4, 1%
COc1ccc(N2CCN(C(=O)CSc3nnc(-c4ccc5[nH]c(C)c(C)c5c4)o3)CC2)cc1
→ 5.2%, 5%, -3, ?
c1ccc(CN2CCC3(CC2)Nc2ccccc2CO3)cc1
→ 0.3%, -13%, 0, 6%
CC1=CC(C)(C)N=C(Nc2ccc(C)cc2)S1
→ -1.8%, -37%, -1, 5%
Cc1ccc2nc(NC(=O)CC3Oc4ccccc4NC3=O)sc2c1 (stereo not given)
→ 3.0%, -8%, -2, -14%
CCN(CC)CCNC(=O)C1CCN(S(=O)(=O)c2c(C)noc2/C=C/c2ccccc2F)CC1
→ -1.7%, 1%&-2%, nt, 1%
O=C(NCc1ccc2c(c1)OCO2)C(=O)NCC1OCCN1S(=O)(=O)c1ccc(Cl)cc1 (stereo not given)
→ 1.3%, 11%, nt, -7%
CCc1cc(=O)oc2cc(OCC(=O)O)c(Cl)cc12
→ -2.5%, -3%, 6, 0%
CC(C)n1cc(CN2CCC(Oc3ccc(C(=O)N4CCCCC4)cc3)CC2)cn1
→ 0.2%, 2%, nt, -18%
O=C(CSc1nnc(-c2cccs2)n1-c1ccccc1)N1CCN(C(=O)c2ccco2)CC1
→ nt, 6%, 2, nt
Cc1ccccc1-c1csc(N)n1
→ 0.6%, nt, nt, 17%
CCN(CC(=O)Nc1cc(Cl)ccc1C)C(=O)CSCc1ccccc1
→ -1.8%, nt, nt, -6%
CSc1ncccc1C(=O)NCc1ccc(C)cc1
→ 0.8%, -15%, -1, -9%
CC1CCN(c2ccc3nnc(CCC(=O)N4CCN(c5ccc(F)cc5)CC4)n3n2)CC1
→ 1.9%, 9%, nt, -2%
COc1cccc(CNC(=O)C2CCN(S(=O)(=O)c3cnc[nH]3)CC2)c1
→ -1.3%, -3%, 0, -5%
O=C(c1ccccc1Cl)N1CCN(C(=O)C2CCCO2)CC1 (stereo not given)
→ ?, nt, nt, -16%
COC(=O)c1ccccc1NC(=O)c1cc(C)no1
→ 1.2%, 0%, nt, 0%
Cc1cc(C)cc(NC(=O)CC23CC4CC(C2)CC(n2nnc(C)n2)(C4)C3)c1
→ 3.7%, -5%, 0, 1%
CCCNC(=O)COC(=O)c1ccccc1OCC(=O)Nc1ccc(Br)cc1
→ -1.8%, -2%, 4, 25%
COCCNCCOc1ccc(C)cc1[N+](=O)[O-]
→ 6.0%, 4%, 0, 12%
O=C(COC(=O)Cn1[nH]c(=O)c2ccccc2c1=O)Nc1ccc2c(c1)OCO2
→ 1.5%, 0%, 12, 7%
Cc1nnc2ccc(-c3ccc(NS(=O)(=O)c4ccccc4F)cc3)nn12
→ 0.9%, nt, nt, -5%
Cc1cccc(NS(=O)(=O)c2ccc(Br)s2)n1
→ 0.8%, -1%, -13, -9%
Fc1ccc2nncc(SCc3ccccc3Cl)c2c1
→ 0.2%, nt, nt, 8%
O=C(NC(=S)Nc1ccccc1C(=O)O)c1ccc(-c2ccc(Br)cc2)o1
→ -1.9%, -70%, nt, 1%
CCOC(=O)C1(CCOc2ccccc2)CCN(Cc2ccc(C)o2)CC1
→ -0.3%, 25%, 2, 1%
CC(C)CN1CCN(Cc2cnc(N3CCOCC3)s2)CC1CCO (stereo not given)
→ -0.4%, -1%, -5, -4%
COc1cc(NC(=S)Nc2ccc3c(c2)OCCO3)cc(OC)c1OC
→ 3.6%, -32%, 0, 1%
COc1nnnc2c1sc1nc(N3CCOCC3)c3c(c12)CC(C)(C)OC3
→ nt, -7%, 0, nt
O=C1CN(C(=O)c2cc3ccccc3oc2=O)C(c2ccc(F)cc2)c2cc(Br)ccc2N1 (stereo not given)
→ 0.1%, -1%, -5, -16%
NC(=O)C1CCN(C(=O)c2cc3c(s2)CCCCC3)CC1
→ 3.8%, nt, nt, 4%
Cc1ccc(CNC(=O)C2CCC(=O)N2Cc2ccccc2Cl)cc1 (stereo not given)
→ 0.8%, -6%, nt, -1%
CC(C)c1ccccc1NC(=O)Cn1c(/C=C/c2ccccc2)nc2ccccc21
→ 1.8%, -43%, 9, -1%
Oc1c(C(c2ccc(Cl)cc2)N2CCCC2)cc(Cl)c2cccnc12 (stereo not given)
→ 0.0%, ?, -17, 31%
COc1ccc(/C=C2\Oc3cc(OCC(=O)N4CCC[C@H]4C(=O)O)ccc3C2=O)c(OC)c1OC
→ ?, -8%, nt, ?
Cc1cc(C(=O)CS(=O)(=O)c2ccc(F)cc2)cc(C)c1O
→ -0.7%, -50%, nt, -11%
COc1ccc(/C=N/N2CCN(Cc3ccccc3)CC2)cc1
→ -3.4%, -5%, nt, 0%
COC(=O)c1ccccc1S(=O)(=O)N1CCC(C(=O)N(C)CCOc2ccccc2)CC1
→ 0.1%, nt, nt, 0%
O=C(CCc1nnc2n(Cc3ccc(Cl)cc3)c(=O)c3ccccc3n12)N1CCN(c2ccccn2)CC1
→ 3.2%, -1%, nt, ?
CCOC(=O)C1C(=O)Nc2nc3ccccc3n2C1C(C)C (stereo not given)
→ 4.6%, -4%, 5, -15%
CC(=O)OC(C(=O)NC1CCCCC1)c1ccccc1F (stereo not given)
→ -1.2%, -4%, 1, 4%
CCOC(=O)c1cnn(-c2ccccc2)c1-n1cccc1C(=O)C(=O)N(CC)CC
→ ?, -2%, 4, 16%
CC(C)(CNC(=O)c1cccc(NS(=O)(=O)c2ccc(Br)cc2)c1)N1CCOCC1
→ -3.0%, 9%, nt, -4%
Cc1ccc(N2C(=O)CS/C2=C(\C(Cl)=C(Cl)Cl)[N+](=O)[O-])cc1
→ -0.3%, -2%, -4, 5%
COc1ccc(C)c2sc(N(CCN(C)C)C(=O)c3cccc(N4C(=O)CCC4=O)c3)nc12
→ 0.6%, nt, nt, -4%
Cc1csc(NC(=O)C2CC(=O)N(Cc3ccco3)C2)n1 (stereo not given)
→ 3.7%, -2%, -3, -7%
O=C(NCCS(=O)(=O)NCC1CCCO1)c1ccccc1 (stereo not given)
→ 2.6%, nt, nt, 9%
O=[N+]([O-])c1ccc(Oc2ccc(-c3nnco3)cc2)c(Cl)c1
→ ?, 2%, nt, -5%

(more compounds)
Second line of a record: Rango-impB inh, miR-21 FLuc, GLA inh pH 4.5, Rango dissoc inh
CCOC(=O)CSc1nc2cc3c(cc2cc1C#N)OCO3
→ -2.2%, -63%, 2, -19%
Clc1ccccc1OCCn1cnc2ccccc21
→ 1.5%, -47%, -19, -4%
CCOCCCNC(=S)NCCNc1nc2ccc(C)cc2cc1C#N
→ ?, -18%, 7, ?
CCCCc1cc(=O)oc2cc(OCC(=O)Nc3cccnc3)c(Cl)cc12
→ 1.2%, 0%, nt, 4%
O=C(COC(=O)c1ccc([N+](=O)[O-])o1)NC1CCCC1
→ -3.5%, nt, nt, 2%
COc1ccc(NC2CCCN(C(=O)CCc3scnc3C)C2)cc1 (stereo not given)
→ 4.9%, 0%, nt, 0%
CCOC(=O)c1ccc(NC(=O)CSc2nnc(COc3ccccc3)n2C)cc1
→ -0.2%, -3%, -2, -10%
O=C(/C=C/c1ccc2ccccc2n1)N1CCN(c2ccccc2)CC1
→ 1.5%, -1%, 0, -18%
CCN1CCN(S(=O)(=O)c2c(C)[nH]c(C)c2C(=O)N2CCCCC2)CC1
→ 3.0%, -2%, nt, 7%
CC(C)(C)c1ccc(-c2cnco2)cc1
→ -1.6%, -2%, 0, -1%
O=C(Nc1ccc(Br)cc1)c1ccccc1Br
→ -0.4%, -38%, nt, -8%
O=C(CSc1nnc2scc(-c3ccccc3)n12)Nc1ccc2c(c1)OCCO2
→ 0.5%, -2%, -1, 28%
Cc1nnc2n(Cc3ccccc3)c(=O)c3c4c(sc3n12)COC(C)(C)C4
→ 1.3%, -13%, 6, -20%
COc1cccc(CN2C(=O)c3cccc(N)c3C2=O)c1
→ ?, -32%, 1, ?
Nn1c(SCC(=O)NNC(=O)c2ccccc2)nnc1-c1ccccc1F
→ -0.5%, nt, nt, -4%
CCCCC(=O)Nc1ccc(Br)cn1
→ 0.0%, -21%, 0, 21%
Cc1ccc2[nH]c(=O)c(CN(CCCN(C)C)C(=O)Nc3ccc(Cl)cc3)cc2c1
→ ?, -2%, 13, 21%
Nc1nc(-c2ccccc2)cc(C(F)(F)F)n1
→ 0.6%, -11%, 2, 1%
COC(=O)[C@@H](NC(=O)O[C@@H]1C(=O)c2ccc(OC)cc2O[C@H]1c1cccc(C(F)(F)F)c1)C(C)C
→ nt, -15%, 2&-7, nt
CC(=O)c1cccc(NC(=O)CCC(=O)c2ccc(F)cc2)c1
→ 3.5%, -1%, nt, -3%
COc1cc2c(cc1OC)N1C(=O)CC(OCC(=O)O)C3C4CC5(CCN5C(=O)C4=O)C2C31 (stereo not given)
→ -3.2%, -2%, 8, 9%
COc1ccc(C2C3=C(CCCC3=O)Nc3c(-c4ccccc4)c(C)nn32)cc1 (stereo not given)
→ -0.9%, -4%, -4, 2%
O=S(=O)(Nc1ccc(-c2ccc3nncn3n2)cc1)c1ccc(Cl)s1
→ ?, nt, nt, -16%
O=C(O)c1cccc(N/C(=N\S(=O)(=O)c2ccccc2)c2ccccc2)c1
→ 7.6%, -1%, 12, -1%
O=C(Cc1n[nH]c(=O)[nH]c1=O)N/N=C/c1ccccc1O
→ 0.0%, -4%, -9, 2%
O=C(N/N=C/C(Br)=C/c1ccccc1)c1n[nH]c2c1CCC2
→ 0.6%, ?, -7, -12%
CC(=O)Nc1ccc(CN2CCN(C3CCCCC3)C(CCO)C2)cc1 (stereo not given)
→ -0.2%, -6%, -8, -7%
COc1cc(OC)nc(Oc2cc(C=O)ccc2OC)n1
→ -3.6%, 5%, nt, 11%
NC(=S)N/N=C/c1cccc(/C=N/NC(N)=S)c1
→ 3.2%, 1%, 5, -21%
CCn1c(=O)c(C(=O)CN(C)CC(=O)Nc2ccccc2Br)c(N)n(Cc2ccccc2)c1=O
→ -1.4%, nt, nt, -4%
COC(=O)c1ccc2c(c1)c(C#Cc1ccccc1)c(-c1ccccc1)n2C
→ ?, nt, ?, -26%
CCN1C(=O)[C@@H]2[C@@H](c3ccc(SC4CCCCC4)c(OC)c3)N3CCCC[C@@]3(C(=O)OC)[C@@H]2C1=O
→ ?, nt, nt, -9%
O=C(O/N=C/c1ccc2c(c1)OCO2)c1ccccc1Cl
→ nt, -15%, 2, nt
O=C(NCCCl)c1ccc(OCc2ccccc2)cc1Cl
→ 5.2%, -38%, -1, -13%
CC(C)(C)c1cc(C(=O)Nc2cccnc2)cc(C(=O)Nc2cccnc2)c1
→ 2.1%, 15%, nt, -9%
